# Screens from PubChem.
# TRPML1 inh: qHTS for Inhibitors of the Human Mucolipin Transient Receptor Potential 1 (TRPML1); TRPML1-inducible cells, Ca2+ dye fluorescence, FDSS; active compounds read low; inhibition of EC80 agonist-evoked calcium signal; activity change, negative = inhibition, % (test concentration not listed); actives 0.02% (n = 390,000); AID 624415, 2012; in the data active means activity change below about -50%; inconclusive means about -30% to -50%; inactive means above about -30%;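 also: stimulus is agonist 54-4 at its EC80 concentration; % is scaled to controls: 0 for no effect and ±100 for the full control effect; compound concentration not given in the record; the text of the record puts the active cut at -80%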
# Target sequence (Q9GZU1 whole entry, looked up): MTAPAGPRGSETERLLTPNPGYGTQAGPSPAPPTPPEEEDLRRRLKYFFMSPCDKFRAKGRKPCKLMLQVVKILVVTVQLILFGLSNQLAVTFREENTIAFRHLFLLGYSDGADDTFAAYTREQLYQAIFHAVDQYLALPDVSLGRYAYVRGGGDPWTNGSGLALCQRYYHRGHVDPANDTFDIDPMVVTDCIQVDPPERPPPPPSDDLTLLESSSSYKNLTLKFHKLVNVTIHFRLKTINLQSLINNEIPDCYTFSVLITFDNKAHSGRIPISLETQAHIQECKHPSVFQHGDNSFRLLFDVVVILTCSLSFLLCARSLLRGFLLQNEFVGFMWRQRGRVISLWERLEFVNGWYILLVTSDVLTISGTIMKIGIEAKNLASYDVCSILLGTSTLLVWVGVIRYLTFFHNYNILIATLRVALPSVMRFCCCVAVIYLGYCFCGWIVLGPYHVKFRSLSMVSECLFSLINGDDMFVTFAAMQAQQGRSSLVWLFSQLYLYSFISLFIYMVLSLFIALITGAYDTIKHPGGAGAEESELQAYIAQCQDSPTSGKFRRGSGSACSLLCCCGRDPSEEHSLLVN
#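 Calcium fluorescence in TRPML1-DL cells induced overnight with Tet: a 110 s read after compound pin addition, then a 110 s antagonist read after challenge with 54-4 at 4 uM final (EC80).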
# TRPV1 potentiator: HTS Assay for Compounds that Act as Potentiators of the Vanilloid Receptor 1. actives 0.02% (n = 320,000). TRPV1-expressing cells, Fluo-8 calcium influx, capsaicin EC20 potentiation; host cell line not named in the record; control for the full effect not named in the record. potentiation, % at 8.33 µM; active means potentiation above 80%; inconclusive means 30% to 80%; inactive means below 30%; also: 0% is about no effect
#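 Fluo-8 calcium influx in TRPV1-expressing cells, kinetic read (ex 480/em 520 nm). Compound added and read 3 min for agonist activity, followed by capsaicin at EC20 final and 2 min further read for enhancement.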
# Menin MLL FP FL: qHTS Assay for Inhibitors Targeting the Menin-MLL Interaction in MLL Related Leukemias: Competition With Fluorescein Labeled MLL-derived Peptide; Fluorescence polarization, fluorescein-MLL peptide displacement from menin; AID 1766, 2009; FP activity change, % at 61.4 µM; 290,000 tested, under 10 active; inconclusive = falling polarisation curve, or a change in total fluorescence; inactive = total fluorescence flat and polarisation flat or rising; no compound was filed as active; the % refers to the polarisation; negative = inhibition;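 also: % of control where 0% means no effect; inhibitors lower the polarisation; unlabelled MLL peptide was the positive control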
# Sfp inh: qHTS Assay for Inhibitors of Bacillus subtilis Sfp phosphopantetheinyl transferase (PPTase); 4'-phosphopantetheinyl transferase ffp (Bacillus subtilis), Q9F4F7; actives 3.5% (n = 310,000); Biochemical Sfp PPTase activity, qHTS; Potency, µM, inactives show max response, negative = inhibition, hits mostly inhibitors; active = well fitted inhibition curve with a large enough effect; inconclusive = small, poorly fitted or top-dose-only effect, or another doubt; inactive = no such curve, though single readings can be large or run the other way;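 also: the enzyme is Sfp with the accession as filed and its product quenches rhodamine fluorescence; potency is read from the fitted curve at half-maximal effect; 0% = enzyme reaction without inhibitor and -100% = no enzyme wells; top concentration of the series not given in the record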
#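 Compounds were incubated with enzyme (final 15 nM) for 15 min at room temperature before substrate addition started the reaction. Fluorescence at 525 nm excitation, 598 nm emission was recorded immediately and after 30 minutes.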
# gsp antagonist: qHTS for Antagonists of gsp, the Etiologic Mutation Responsible for Fibrous Dysplasia/McCune-Albright Syndrome: qHTS; gsp-mutant cells, cAMP HTRF, 30 min; control for the full effect not named in the record; Potency, µM (series often up to 76.9 µM), inactives show at the top dose activity change, negative = inhibition, hits mostly inhibitors; actives 0.4% (n = 340,000); AID 624288, 2012; active = falling curve of any shape with a large fitted effect; inconclusive = falling curve, mostly with a smaller effect; inactive = flat or rising curve; cell line not stated here;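 also: intracellular cAMP measured with PDE inhibitor Ro 20-1724 present during compound exposure; potency is read from the fitted curve at half-maximal effect; % is scaled to controls: 0 for no effect and ±100 for the full control effect; nearly all actives have a fitted effect of over 65% in size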
#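 HTRF cAMP read-out (cAMP-d2 plus anti-cAMP antibody-K in lysis buffer, 30 min RT). Before lysis, cells are exposed to compounds with […] for 30 min at 37C in DPBS containing Ca/Mg, BSA and Tween 20.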
# ClpP mod: qHTS Assay for Activators of ClpP; ATP-dependent Clp protease proteolytic subunit (Bacillus subtilis (strain 168)), P80244; purified B. subtilis ClpP, FRET peptide cleavage, 20 min; Potency, µM (doses to about 57.5 µM), for the others: at the highest dose activity change, negative = active; actives 1.9% (n = 340,000); AID 651965, 2013; active = well fitted falling curve with a large enough effect; inconclusive = small, poorly fitted or top-dose-only effect; inactive = no such curve, though single readings can be large or run the other way; also: potency is read from the fitted curve at half-maximal effect; the source files actives as falling curves though it sought activators and does not explain the sign; nearly all actives have a fitted effect of over 65% in size; many hits overshoot -100%
# Target sequence (P80244 whole entry, looked up): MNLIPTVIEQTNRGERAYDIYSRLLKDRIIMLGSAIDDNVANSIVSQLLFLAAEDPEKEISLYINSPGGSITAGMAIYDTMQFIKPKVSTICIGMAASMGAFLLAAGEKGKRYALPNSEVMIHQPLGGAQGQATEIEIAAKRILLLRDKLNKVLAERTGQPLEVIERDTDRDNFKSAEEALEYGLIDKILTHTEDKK
#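 ClpP 10 microg/mL final, pH 8 Tris/KCl buffer with BSA, glycerol, Tween-20; compound pinned in; FRET-FV substrate; RT 20 min; Ex320/Em430; ΔFRET vs ADEP 5.8 microM, DMSO, no enzyme.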
# gsp ag: qHTS for Agonist of gsp, the Etiologic Mutation Responsible for Fibrous Dysplasia/McCune-Albright Syndrome: qHTS; gsp mutant cells, cAMP HTRF, 30 min; control for the full effect not named in the record; Potency, µM (highest dose often 76.9 µM), inactives show at the top dose activation (cAMP increase), usual class: activators; actives 0.13% (n = 340,000); AID 624287, 2012; active = well fitted activation curve with a large enough effect; inconclusive = small, poorly fitted or top-dose-only effect, or another doubt; inactive = no such curve, though single readings can be large or run the other way; cell line not stated here;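 also: phosphodiesterase inhibitor Ro 20-1724 added with compounds to block cAMP breakdown; potency is read from the fitted curve at half-maximal effect; nearly all actives have a fitted effect of over 60% in size; about a fifth of the inactives were tested at one dose only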
#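 Cells stably selected in G418 were plated at 2000/well, grown 16-24 hr, then given compounds in DMSO with the PDE inhibitor […] (300 uM solution added) for 30 min at 37C; cAMP was read by HTRF.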
# * marks the source's active call; other numbers are inactive results; ? = inconclusive; / = not tested or not shown; [ ] = dose if it differs, or a comment.
nr	smiles	TRPML1 inh	TRPV1 potentiator	Menin MLL FP FL	Sfp inh	gsp antagonist	ClpP mod	gsp ag
1	N#CC1=C2N=C(N)c3ccccc3N2C2=C(C(=O)CCC2)C1c1ccc(Cl)cc1 (stereo not drawn)	25	16	2.6	-1%	?	-1.1%	-34%[inhibitor]
2	CC1C(=NO)C(C)C(c2ccc(N(C)C)cc2)NC1c1ccc(N(C)C)cc1 (stereo not drawn)	-3	/	-0.5	-29%	3%	-0.4%	?
3	COc1ccccc1CNC(=O)C1CCCN(S(=O)(=O)c2ccc3c(c2)CC(C)N3C(C)=O)C1 (stereo not drawn)	-2	-3	3.0	21%	-8%	0.4%	-36%[inhibitor]
4	CCCNC(=S)N1CCC(NC(=O)c2cccc(C)c2)CC1	-2	7	-0.7	1%	-1%	-1.6%	18%[15.4 µM]
5	O=C(Nc1cccc(-n2cccn2)c1)C1CCCN(Cc2ccc(C#CCCO)cc2)C1 (stereo not drawn)	18	4	/	10%	5%	-3.8%	-3%[15.4 µM]
6	CCOC(=O)CCCNC(=O)CCNC(=O)c1ccc(OCC)cc1	12	-1	2.9	13%	1%	0.8%	6%
7	COc1cccc(C(=O)OCC(=O)NCCc2ccccc2)c1OC	6	-1	1.5	-20%	0%	-9.8%	?
8	Cc1noc(C)c1COc1cccc(C(=O)NCc2ccccc2Cl)c1	-4	3	-1.1	3%	3%	-1.9%	4%
9	CCOc1ccc(OCC(O)CNC2CCN(Cc3ccccc3)CC2)cc1 (stereo not drawn)	0	-2	1.1	7%	14%	-5.3%	-3%
10	C[C@H]1CN([C@@H](C)CO)C(=O)c2cc(-c3ccccc3F)cnc2O[C@H]1CN(C)C(=O)C1CCOCC1	-5	/	/	/	/	0.7%	-53%
11	CCOc1ccc(Br)cc1C(=S)N1CCCC1	/	?	-5.6	-1%	8%	1.4%	-26%
12	CC(=O)N(Cc1cc2ccc(C)c(C)c2n2nnnc12)C1CCCC1	/	-5	-1.3	-15%	/	/	/
13	O=C(COc1ccccc1)NCC(=O)Nc1cccc2ccccc12	18	-1	3.5	5%	8%	2.1%	5%
14	CC(=O)NC(Cc1c[nH]c2ccccc12)C(=O)OCC(=O)N1CCCCCC1 (stereo not drawn)	1	8	-3.0	5%	12%	0.3%	5%[15.4 µM]
15	O=C(C1COc2ccccc2O1)N1CCN(Cc2ccc3c(c2)OCO3)CC1 (stereo not drawn)	9	-28	3.0	-14%	2%	-2.0%	-22%
16	COc1ccc(NS(=O)(=O)c2ccc(-n3cnnn3)cc2)cc1OC	-10	12	/	8%	-5%	1.2%	-22%
17	CSc1ccccc1NC(=O)CN(C)C(=O)c1ccc(-n2cccn2)cc1	7	24	/	/	-6%	-4.1%	4%
18	O=C(Nc1ccccc1F)N1CCCC1c1cccnc1 (stereo not drawn)	1	4	-1.2	6%	5%	/	6%[15.4 µM]
19	CN(C(=O)CSc1nc2ccccc2n1C)C1CCS(=O)(=O)C1 (stereo not drawn)	0	-12	/	/	11%	0.0%	18%
20	CCCCNC(=O)c1ccc(CS(=O)(=O)c2ccccc2OC)o1	7	-4	-7.3	0%	11%	0.1%	?
21	CCC(=O)OCC(=O)Nc1cc([N+](=O)[O-])ccc1Cl	63	7	3.8	2%	2%	-2.7%	-1%[15.4 µM]
22	COc1ccc2nc(NC(=O)C3CCCN3S(=O)(=O)c3ccc(C)cc3)sc2c1 (stereo not drawn)	32	-8	4.1	-1%	-26%	-13%	-9%
23	O=C(COC(=O)Cc1ccsc1)Nc1ccc(Cl)c(S(=O)(=O)N2CCOCC2)c1	-11	-35	/	2%	2%	-0.9%	-55%[inhibitor]
24	CCOc1ccc(-n2c(C)cc(C(=O)NS(=O)(=O)c3ccc(C)cc3)c2C)cc1	-7	2	-3.0	3%	-17%	/	-1%
25	O=C(O)C1CC(=O)N(c2ccc(F)cc2)C1 (stereo not drawn)	-7	?	0.2	17%	-8%	1.8%	1%

# The closing two compounds of the part before are carried over, then new ones follow:
nr	smiles	TRPML1 inh	TRPV1 potentiator	Menin MLL FP FL	Sfp inh	gsp antagonist	ClpP mod	gsp ag
24	CCOc1ccc(-n2c(C)cc(C(=O)NS(=O)(=O)c3ccc(C)cc3)c2C)cc1	-7	2	-3.0	3%	-17%	/	-1%
25	O=C(O)C1CC(=O)N(c2ccc(F)cc2)C1 (stereo not drawn)	-7	?	0.2	17%	-8%	1.8%	1%
26	O=C1CN(C(=O)COC(=O)[C@@H]2CCCN2S(=O)(=O)c2ccc(Cl)cc2)c2ccccc2N1	45	/	/	/	-19%	-1.5%	8%[15.4 µM]
27	Cc1ccc(S(C)(=O)=NC(=O)c2cc(C)on2)cc1 (stereo not drawn)	-11	-7	3.6	14%	1%	-0.4%	11%[15.4 µM]
28	N#Cc1c(N)nc2c(c1-c1cccnc1)CCCCC2	5	-26	0.4	-3%	-8%	-27%	-42%[inhibitor]
29	C[C@@H]1C(=O)N(c2ccccc2)[C@@H]1c1ccncc1	16	/	/	/	2%	1.4%	/
30	COc1cc(C(=O)Nc2ccc(S(=O)(=O)N3CCCCC3)cc2)ccc1OCC(=O)N1CCOCC1	-3	/	/	/	-7%	-1.7%	4%
31	CC(=O)N1CCN(S(=O)(=O)c2cccc(C(=O)NC3CCCc4ccccc43)c2)CC1 (stereo not drawn)	-5	-4	5.7	5%	3%	1.1%	6%
32	CCCCn1c(N)c(N(CC(C)C)C(=O)C2=NN(c3ccccc3)C(=O)CC2)c(=O)[nH]c1=O	-5	2	/	/	3%	0.9%	8%
33	CCOc1ncnc2c1sc1nc(C)cc(C)c12	-4	/	-1.9	7%	-8%	-3.5%	-1%[15.4 µM]
34	O=C(CC(c1ccccc1)c1ccccc1O)NCc1ccccc1 (stereo not drawn)	-23	1	0.7	4%	-22%	/	1%
35	Cc1cc(C)nc(/N=C(\N)Nc2ccccc2-c2ccccc2)n1	-11	-12	-2.7	1%	/	/	19%[15.4 µM]
36	Nc1cccc(-c2cn3cc(C(F)(F)F)cc(Cl)c3n2)c1	-5	-7	1.6	7%	5%	-7.8%	-22%
37	CCOc1ccccc1N/C(=C(/C(Cl)=C(Cl)Cl)[N+](=O)[O-])n1cncn1	37	3	7.3	-29%	-1%	3.9%	7%
38	O=C(NCCNC(=O)c1ccc(Cl)cc1Cl)c1cnccn1	1	5	-1.5	14%	5%	/	7%[15.4 µM]
39	COc1ccc(-c2csc3nc(C(C)(C)C)oc(=O)c23)cc1OC	-3	4	-2.8	-9%	-10%	-0.2%	-44%
40	CCOc1ccc(NC(=O)CN(C)C(=O)c2cc(-c3ccncc3)nc3ccccc23)cc1OCC	11	5	/	/	-2%	0.6%	-13%
41	Nc1nc(SCC(=O)Nc2ccccc2)[nH]c(=O)c1-c1ccccc1	53	7	4.5	11%	-1%	-2.1%	-68%[inhibitor]
42	C/C(=N\OC(=O)c1c(-c2ccccc2Cl)noc1C)c1nccs1	5	-4	-3.1	17%	-15%	-1.4%	-30%
43	O=C1CC(Cc2ccccc2)C(=O)N1Cc1ccco1 (stereo not drawn)	-2	-5	?	14µM*	-1%	-1.0%	-15%
44	CN(C)C1=NC[C@H](Cc2ccccc2)N1CCc1ccc(F)cc1	12	-12	/	/	-2%	-3.5%	5%
45	CCCOc1ccc2c3c(c(=O)oc2c1OCCC)CCC3	58	-5	1.3	-17%	-18%	-26%	-34%[inhibitor]
46	CCCNCC(=O)Nc1cccc(S(=O)(=O)NC2=NCCCCC2)c1	10	/	/	/	4%	-2.9%	17%[15.4 µM]
47	CC(C)(C)NC(=O)NC(=O)C[n+]1ccc(Cc2ccc([N+](=O)[O-])cc2)cc1	-14	11	-5.0	-5%	18%	-3.4%	?
48	CCOC(=O)C1CCCCN1C(=O)CCc1nnc(-c2ccc3c(c2)OCO3)o1 (stereo not drawn)	-19	/	/	/	4%	?	-87%[inhibitor]
49	CC(NC(=O)c1ccc(S(=O)(=O)C(F)F)cc1)c1ccccc1 (stereo not drawn)	11	27	-1.0	9%	4%	0.0%	1%[15.4 µM]
50	Cc1ccc(NC(=O)Cc2ccccc2F)cc1S(=O)(=O)N1CCCCCC1	6	-13	/	/	?	3.4%	16%
51	O=c1[nH]c2ccccc2nc1/C=C/c1ccc(O)cc1	-12	-3	?	-4%	-25%	/	21%
52	CCCCN1C(Nc2ccccc2)=NC[C@@H]1CC(C)C	20	?	/	/	7%	-0.4%	/
53	CCN(CC)S(=O)(=O)c1cc(C(=O)Nc2cccnc2)ccc1Cl	-13	7	2.2	11%	-4%	0.5%	5%
54	C=CCN1c2ccccc2Sc2cnccc21	32	/	/	/	/	-3.2%	?
55	COc1ccc(S(=O)(=O)Nc2cccc(/C=C/C(=O)O)c2)cc1	5	-2	1.1	?	-4%	1.1%	-11%
56	Cc1cccc(C)c1NC(=O)CSC(=O)c1sc2ccccc2c1Cl	38	1	?	-10%	2%	/	16%[15.4 µM]
57	COc1cccc(-c2nc(-c3ccccn3)no2)c1	36	?	0.8	3%	3%	-4.6%	?

# From compound 55 up to 57, as listed above:
nr	smiles	TRPML1 inh	TRPV1 potentiator	Menin MLL FP FL	Sfp inh	gsp antagonist	ClpP mod	gsp ag
55	COc1ccc(S(=O)(=O)Nc2cccc(/C=C/C(=O)O)c2)cc1	5	-2	1.1	?	-4%	1.1%	-11%
56	Cc1cccc(C)c1NC(=O)CSC(=O)c1sc2ccccc2c1Cl	38	1	?	-10%	2%	/	16%[15.4 µM]
57	COc1cccc(-c2nc(-c3ccccn3)no2)c1	36	?	0.8	3%	3%	-4.6%	?
